# Rango dissoc inh = inhibitors of RanGTP-induced Rango-importin beta complex dissociation; actives 0.071% (n = 340,000); Biochemical FRET Rango-importin beta, RanGTP-induced dissociation; O95149+P62826; Potency, µM (series often up to 46.1 µM), inactives show at the highest dose activity change, negative = inhibition; active means falling FRET ratio curve, often poorly fitted, with flat reads before Ran was added; inconclusive means other falling curves, or compound fluorescence or quenching; inactive means flat or rising ratio curve;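 further: potency means the concentration at half of the fitted maximal effect; % of control where 0% means no effect; nearly all actives have a fitted effect of over 45% in size; -100% = wells without RanGTP and RCC1; the record marks most hits as doubtful in a second field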
#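 Two FRET readings bracket the reaction: one 5 min after compound meets Rango–importin beta, another 45 min after RanGTP-RCC1 (0.6 uM Ran, 0.2 uM RCC1, 2 mM GTP) is added. Only the second defines inhibition.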
# GLA inh pH 4.5 = blocks human alpha-galactosidase A at pH 4.5; P06280; purified enzyme, 4-MU-alpha-Gal fluorescence, pH 4.5; activity change, negative = inhibition, % at 105 µM; 230,000 tested, under 10 active; AID 1467; inconclusive = small, poorly fitted or top-dose-only inhibition, or a rising curve; inactive = flat fitted curve, though single readings scatter; no compound was filed as active;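 further: 0% = full activity with enzyme and -100% = basal without enzyme; dose as in the result columns while the protocol names 77 µM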
# Rango complex inh = inhibitors of Rango-importin beta complex formation. Q14974. AID 540263. Potency, µM (doses to about 92.2 µM), inactives show top-dose inhibition of complex formation. Rango CFP/YFP FRET sensor + importin beta, 45 min. actives 0.031% (n = 340,000); active = rising FRET ratio curve, often small or poorly fitted; inconclusive = mostly compound fluorescence or quenching in the first reads; inactive = flat curves in all reads;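 further: potency means the concentration at half of the fitted maximal effect; 0% = DMSO wells and 100% = buffer wells lacking importin beta; nearly all actives have a fitted effect of over 15% in size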
# Target sequence (Q14974 whole entry, looked up): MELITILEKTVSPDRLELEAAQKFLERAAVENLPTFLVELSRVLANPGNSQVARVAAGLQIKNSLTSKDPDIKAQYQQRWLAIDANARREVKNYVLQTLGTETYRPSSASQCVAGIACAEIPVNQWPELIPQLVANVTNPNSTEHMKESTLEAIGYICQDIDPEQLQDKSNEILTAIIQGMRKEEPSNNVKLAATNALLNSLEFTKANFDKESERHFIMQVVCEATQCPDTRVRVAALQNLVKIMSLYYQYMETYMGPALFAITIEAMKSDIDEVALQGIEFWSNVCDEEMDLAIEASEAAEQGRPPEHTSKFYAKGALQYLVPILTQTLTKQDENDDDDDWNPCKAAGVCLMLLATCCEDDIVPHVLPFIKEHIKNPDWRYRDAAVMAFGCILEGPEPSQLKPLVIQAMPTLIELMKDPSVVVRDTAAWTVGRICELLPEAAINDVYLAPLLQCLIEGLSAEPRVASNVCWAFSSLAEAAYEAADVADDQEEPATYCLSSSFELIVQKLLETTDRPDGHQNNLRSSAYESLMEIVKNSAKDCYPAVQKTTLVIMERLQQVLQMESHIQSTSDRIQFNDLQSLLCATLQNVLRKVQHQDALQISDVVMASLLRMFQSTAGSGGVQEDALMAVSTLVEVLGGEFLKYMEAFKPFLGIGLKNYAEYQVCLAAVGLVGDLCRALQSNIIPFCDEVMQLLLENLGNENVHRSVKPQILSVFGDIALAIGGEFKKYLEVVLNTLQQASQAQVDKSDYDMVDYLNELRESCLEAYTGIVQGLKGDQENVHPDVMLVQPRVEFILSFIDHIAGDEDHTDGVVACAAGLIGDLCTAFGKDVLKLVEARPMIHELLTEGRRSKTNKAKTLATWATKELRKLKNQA
#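 Inhibition scored from the CFP 486 nm/YFP 530 nm FRET ratio 45 min after adding 0.125 microM importin beta to 50 nM Rango biosensor preincubated 5 min with compound (room temperature, PBS with DTT, Tween-20, BSA). No-importin wells as positive control.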
# miR-21 reporter = raises the signal of a miR-21 reporter; HeLa miR-21 FLuc reporter, luciferase, 48 h; Potency, µM (highest dose often 38.3 µM), without a hit: at the top dose reporter change, positive = more light; 340,000 tested, under 10 active; active = well fitted rising curve with a large enough effect; inconclusive = small, poorly fitted or top-dose-only effect; inactive = no such curve, though single readings can be large or run the other way;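 further: % of control where 0% means no effect; miR-21 action dims this reporter so a rising signal means less miR-21 action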
#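 Luminescence from a firefly luciferase reporter carrying a miR-21 binding site downstream, stably expressed under a CMV promoter in HeLa cells that make miR-21 endogenously, reports miRNA modulation after 48 h compound exposure up to approximately 40uM final.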
# * = called active by the depositor; ? = inconclusive; . = no result given; & = joins results of further samples; [ ] = another dose, or the depositor's remark.
mol | Rango dissoc inh | GLA inh pH 4.5 | Rango complex inh | miR-21 reporter
C/C(=C\C(=O)c1ccccc1)Nc1ccc(Br)c(Cl)c1 | -21.3% | 0.8 | 4.0% | -43.6%
CCn1c(C(C)NC(=O)c2ccccc2C)n[nH]c1=S (stereo unspecified) | -12.6% | 4.7 | -0.1% | 2.6%
COc1ccc(S(=O)(=O)N2CCSC2c2ccc(N)cc2)cc1 (stereo unspecified) | 7.5% | -15.8 | -0.7% | -0.1%
CCNS(=O)(=O)c1ccc(NC(=O)Nc2cc(C)ccc2OC)cc1 | 13.2% | 3.2 | 3.3% | 6.0%
CN(C)S(=O)(=O)c1ccc(N2CCN(S(=O)(=O)c3ccc(F)cc3)CC2)c(Cl)c1 | -5.0% | -16.1 | 2.0% | ?
CCC1CCCCN1C(=O)c1sc2ncnc(N(CC)CC)c2c1C (stereo unspecified) | -9.2% | -5.8 | -0.8% | -4.7%
CS(=O)(=O)N(CCC#N)Cc1ccco1 | -0.4% | 4.0 | -2.8% | 0.6%
Cc1ccc(S(=O)(=O)Nc2cccc(C(=O)NCC(C)(C)N3CCOCC3)c2)cc1F | -3.0% | . | -0.2% | .
O=C(CNC(=O)Cc1ccccc1)NCC(=O)N1CCN(C(c2ccccc2)c2ccccc2)CC1 | -5.9% | . | 0.3% | 0.5%
O=C1CC(c2ccccc2)Cc2nc3ncnn3cc21 (stereo unspecified) | ? | -2.4 | ? | 20.7%
COc1ccc2nc(SCC(=O)Nc3ccccc3C#N)[nH]c2c1 | 0.3% | 3.5 | 1.2% | -37.0%
CCn1c(SCC(=O)N2CCCC2)nc2ccccc21 | 0.3% | 1.1 | -1.0% | -2.6%
COc1cc(NC(=O)CCn2c(=O)oc3ccccc32)cc(OC)c1OC | 1.4% | . | 0.9% | 2.5%&-2.0%
C/C=C/C(=O)OCC(=O)Nc1ccccc1Br | 29.9% | ? | -2.7% | -1.3%
COc1ccccc1OCc1cc(C(=O)N2CCN(C)C(c3ccccc3)C2)no1 (stereo unspecified) | -10.5% | . | -1.7% | -30.2%
Cc1cc(=O)oc2c3c(cc(OCC(=O)N4CCC[C@H]4C(=O)O)c12)OC(C)(C)CC3 | -6.4% | . | 0.7% | -1.3%
Cc1ccc(S(=O)(=O)NNC(=O)C(O)(c2ccccc2C)c2ccccc2C)cc1 | 7.6% | 0.3 | -1.5% | -1.5%
CC(C)N1CC(C(=O)Nc2cccc([N+](=O)[O-])c2)CC1=O (stereo unspecified) | 1.4% | . | -1.4% | -2.7%
O=C(NC1CCCC1)C(c1ccccc1)N(Cc1cccnc1)C(=O)Cc1cccs1 (stereo unspecified) | 1.4% | 3.1 | -1.0% | -0.3%
CCOc1ccccc1NC(=O)Cn1nnc(C(=O)NCCc2ccc(OC)c(OC)c2)c1N | 34.0% | 0.2 | -0.2% | -0.2%
COc1cc(NC(=O)C(C)C)ccc1NC(=O)c1cc2ccccc2o1 | -0.5% | . | -0.8% | -47.8%
O=C(/C=N/O)NCC1CCNCC1 | -8.5% | 2.5 | 3.1% | -2.6%
CC(C)N(C(=O)[C@H]1CC(CC(=O)NCCC2=CCCCC2)C(=O)N2CCc3c([nH]c4ccccc34)[C@]12C)C(C)C (stereo partly specified) | 0.9% | . | 0.2% | .
C/C(=C\C(=O)c1ccncc1)Nc1ccccc1O | -5.8% | -16.9 | -2.5% | -5.2%
COc1c(C)cc(C(=O)C2CCCN(Cc3cnc(N4CCOCC4)s3)C2)cc1C (stereo unspecified) | -9.1% | -2.7 | -0.1% | 8.7%
O=C(NC(=S)Nc1cccnc1)c1cccs1 | 5.8% | 0.0 | 1.8% | -30.3%
Cc1cccc(/C=N/N2CCN(c3ccccc3)CC2)c1 | 3.8% | 0.2 | 1.1% | -51.2%
CC1c2cc3c(cc2CCN1CC(=O)Nc1ccc(S(=O)(=O)N2CCCC2)cc1)OCCCO3 (stereo unspecified) | -7.6% | . | 3.9% | 10.1%
CC(=O)NC(CC(=O)Nc1cccc(S(=O)(=O)N2CCCC2)c1)c1ccccc1 (stereo unspecified) | 8.9% | . | -0.8% | -2.1%
O=C(c1ccc(S(=O)(=O)N2CCCC2)cc1)N1CCN(S(=O)(=O)c2cccc(F)c2)CC1 | 5.1% | . | -2.2% | -0.1%
Cc1sc2nc3ccc(N4CCCCC4)nn3c(=O)c2c1C | ? | 1.8 | ? | -33.2%
Fc1ccc(CSc2ccc3nnc(-c4cccnc4)n3n2)cc1 | 28.0% | -2.6 | -1.8% | 1.3%
CCN(CC)S(=O)(=O)c1ccc(C(=O)NNC2=NS(=O)(=O)c3ccccc32)cc1 | 1.0% | . | -0.9% | 1.6%
CSc1cccc(NC(=S)N2CCC(N(C)C3CCCC3)CC2)c1 | 0.8% | -11.1 | 4.3% | 1.2%
O=C(COC(=O)CN1C(=O)NC2(CCCCC2)C1=O)Nc1cc(F)ccc1F | -1.3% | . | -2.6% | .
Cc1nc2ccccc2n1C(=O)N(C)C | -11.9% | -4.5 | -1.2% | 1.6%
O=C(N/C(=C\c1ccccc1)C(=O)N1CCOCC1)c1ccco1 | 2.9% | . | -0.1% | 7.4%
COc1ccccc1C/C(N)=N/OC(=O)COc1cccc2ccccc12 | 3.8% | 5.1 | -1.2% | -8.9%
C/C(CC(=O)Nc1ccc(OCc2ccccc2)cc1)=N\NC(=O)C(=O)Nc1ccc(C)c(Cl)c1 | -6.6% | -3.2 | -2.3% | -33.4%
COc1ccc(C(=O)NNC(=O)CCC(=O)NNC(=O)c2ccc(OC)cc2)cc1 | 38.5% | . | 0.4% | 0.2%
CN(C)CC/C=C1/c2cc(F)ccc2CSc2ccc(F)cc21 | -9.7% | -5.7 | 1.1% | 21.3%
Cc1cc(NC(=O)CCC(=O)N(CC(=O)NCC2CCCO2)c2ccc(F)c(Cl)c2)no1 (stereo unspecified) | 16.3% | . | 5.7% | 3.0%
CC(C)C(=O)NC(=S)Nc1ccc(S(=O)(=O)N(C)C)cc1 | -16.3% | 1.9 | ? | -4.8%
O=C(O)c1ccc(-n2c(=O)c3ccccc3c3ccccc3c2=O)cc1 | -9.3% | -5.5 | -0.6% | 1.8%
CCCn1c(N2CCN(CC(=O)Nc3ccc4c(c3)OCCO4)CC2)nc2ccccc21 | -9.3% | 6.2 | 0.2% | -6.4%
CCN(CC(=O)Nc1ccc(OC)cc1)C(=O)c1ccccc1Sc1ccccc1C#N | -18.2% | . | 0.4% | .
Cc1ccc(C(=O)Nc2cccc(-c3ccc(N4CCOCC4)nn3)c2)cc1 | -8.8% | . | ? | .
COc1cccc(/C=N/NC(=O)c2cnn(-c3ccccc3)c2N)c1 | -2.5% | 3.7 | -0.9% | -41.2%
Cc1ccc(C(=O)NCC2CCCO2)cc1N1CCCC1=O (stereo unspecified) | 3.3% | -10.6 | -4.6% | -0.8%
CC1OC(Nc2ccc(OC(F)(F)F)cc2)C(O)C(O)C1O (stereo unspecified) | 5.6% | 11.1 | 0.0% | -4.6%
CCCN(CC1CC1)C(=S)Nc1ccccc1F | 1.1% | 2.7 | 3.7% | -4.5%
S=c1[nH]c2cnccc2n1Cc1ccccc1 | 17.3% | . | -0.4% | -12.7%
Cc1cccc(N=Nc2c(C)[nH]n(C(N)=S)c2=O)c1C | . | -9.6 | . | -17.3%
CN1CCN(S(=O)(=O)c2ccc(Sc3nnc(-c4cccs4)n3-c3ccccc3)nc2)CC1 | -4.8% | -8.1 | 0.1% | 8.1%
CCOc1ccc(C(C)=O)cc1CSc1nc(C)cc(C)n1 | 8.4% | -5.4 | 3.6% | -0.9%
COc1ccccc1CN(C)CC(=O)Nc1ccc(Cl)cc1C(F)(F)F | -1.8% | 8.0 | 0.8% | -13.6%

# New compounds follow:
mol | Rango dissoc inh | GLA inh pH 4.5 | Rango complex inh | miR-21 reporter
CC(=O)Nc1ccc(NC(=O)CCCNC(=O)c2ccc(Cl)cc2)cc1 | 21.1% | . | 3.9% | -0.6%
Cc1ccc(CNC(=O)c2ccc(NS(=O)(=O)c3cccs3)cc2)cc1 | 1.5% | . | -0.1% | -3.3%
Cc1ccc(Cn2nnc3c(=O)[nH]c(C4CCCN(C(=O)Nc5ccc(F)cc5F)C4)nc32)cc1 (stereo unspecified) | 0.4% | 5.4 | -0.5% | 8.8%
CCOC(=O)c1c(NC(=O)CSc2n[nH]c(N)n2)sc(CC)c1C | -9.9% | 6.5 | 2.0% | -8.4%
Brc1ccc(OCc2ccccc2)c(CNCc2ccncc2)c1 | -5.4% | -10.4 | 1.1% | 13.0%
O=C1CSC(c2ccccn2)N1c1ccc(Cl)c(Cl)c1 (stereo unspecified) | -4.8% | 7.0 | 0.4% | -5.9%
CCc1ccc(S(=O)(=O)NCCOc2cccc3cccnc23)cc1 | 1.0% | . | -1.5% | 4.3%
Cn1c(SCC(=O)Nc2nc3c(s2)CCCC3)nnc1-c1ccccc1 | -4.5% | 2.9 | 0.0% | -3.2%
CCOc1ccccc1NC(=O)CN1CCC(NC(=O)c2ccccc2)CC1 | 25.2% | 1.9 | 1.1% | -8.8%
O=C1c2ccccc2S(=O)(=O)N1CCOc1ccccc1 | -2.0% | -1.1 | -1.1% | -32.0%
Cc1cc(C(=O)CSc2ccc3c(c2)OCCO3)c(C)n1C1CC1 | -9.6% | -3.2 | -1.9% | -71.6%
CCOc1ccc(/C=N/NC(=O)c2ccccc2Cl)cc1CN1CC2CC(C1)c1cccc(=O)n1C2 (stereo unspecified) | -0.9% | . | 3.7% | .
CC1CCN(S(=O)(=O)c2cccc(C(=O)NCc3cccs3)c2)CC1 | 23.8% | -7.1 | -3.5% | 0.0%
O=C(O)c1ccccc1SCc1cn2cc(Br)ccc2n1 | 0.3% | 5.9 | -0.6% | -23.0%
CC(=O)Nc1ccc(NC(=O)C2CCCN(C(=O)c3ccc(Cl)cc3)C2)cc1 (stereo unspecified) | -8.7% | 5.2 | 2.5% | -2.3%
Cc1cc(C)cc(NC(=O)N2CCC(NC(=O)c3ccc(F)cc3)CC2)c1 | -3.4% | -10.8 | -1.3% | -2.5%
C=CCOC(=O)C1=C[C@H](c2ccc(Br)cc2)[C@@H](CCCO)[C@H](OCC)O1 | -9.3% | -4.8 | -2.2% | -1.7%
C/C(=N\N=C1\NC(=O)C(CC(=O)Nc2ccc(C)c(Cl)c2)S1)C(C)(C)C (stereo unspecified) | 14.4% | -24.1 | ? | 1.1%
CC(C)NC(=S)N/N=C/c1cccnc1 | 21.2% | -5.8 | 0.1% | 0.2%
CCn1c(-c2ccc(F)cc2)cnc1SCC(=O)N1CCCCC1C (stereo unspecified) | . | 0.5 | . | -54.5%
NS(=O)(=O)c1ccc(CCNC(=O)c2ccc3c(c2)OCCO3)cc1 | -2.2% | 1.5 | -2.1% | -1.5%
O=C(Nc1ncc([N+](=O)[O-])s1)C1CCN(S(=O)(=O)c2cnc[nH]2)CC1 | -16.8% | -4.0 | 3.6% | -31.1%
COc1ccc(NC(=O)NCc2ccc3c(c2)OCO3)c(OC)c1 | -2.8% | . | 0.6% | -0.8%
Cc1cc(NC(=O)c2ccc(F)cc2)n(C)n1 | 20.8% | . | -0.7% | -6.6%
COC(=O)c1sccc1NC(=S)Nc1ccc(OC)cc1 | -11.4% | -1.6[21.1 µM] | 0.9% | 0.3%
Cc1cccc(NC(=S)NN(Cc2ccccc2)c2ccccc2)c1C | -15.3% | -0.6 | -3.0% | 6.4%
Cc1ccc(C(=O)N2CCN(c3ccc(C(F)(F)F)cn3)CC2)cc1 | -20.1% | -4.4 | -2.8% | 1.0%
CC(C)(C)C(=O)C(Oc1cccc2nonc12)n1cncn1 (stereo unspecified) | 18.0% | 9.4 | 0.3% | 0.0%
CCCc1cc(C(=O)NNC(=S)NCC2CCCO2)cs1 (stereo unspecified) | 0.6% | 1.3 | -0.3% | -20.6%
N#Cc1c2n(c3c(=O)n(CC(=O)c4ccc([N+](=O)[O-])cc4)cnc13)CCCCC2 | -7.0% | -2.9 | 1.4% | -6.5%
COC(=O)c1sc(-c2ccccc2)cc1NC(=O)c1ccccc1 | 2.1% | -5.3 | 3.2% | -4.5%
Cc1nc(SCc2nnc(-c3ccc(Cl)cc3)o2)c2c3c(sc2n1)CCC3 | . | -2.8 | . | -1.5%
COc1ccc(OCC(=O)N2CCN(C(=O)Cc3ccccc3)CC2)cc1 | 4.3% | -1.0 | 6.1% | 1.1%

# From PubChem

# Some of the compounds tested, so the mix of outcomes need not match the whole.
